Bioassay records deposited in PubChem by several laboratories.
CSC inhib – cancer stem cell viability inhibitors, primary screen, luminescence. AID 2717, 2010. cancer stem cell-like cells viability. inhibition, % at 7.5 µM. 300,000 tested, 1.1% active;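 active means mean at 75% or more and at least half the replicates too; inconclusive means mean and replicates disagree; tested in HMLE shEcad cells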;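 further: 0% = median of negative and 100% = median of positive control wells; the first replicate is given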
eIF4H inh – human eIF4H binding inhibitors, primary screen, translation initiation inhibitor project, biochemical, uHTS, fluorescence polarization | eIF4H fluorescence polarization binding assay | inhibition, % at 35 µM | 290,000 tested, 0.94% active | AID 2012, 2009;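 active means 50% or more with normal probe brightness, or confirmed in later tests; inconclusive means above 50% with abnormal brightness, or retests that disagree; inactive means below 50% or failed in later tests; about a fifth of its hits are not listed in these tables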;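 further: calls also rest on retests at 20 µM and on dose response follow-up; 0% = protein and probe with vehicle and 100% = probe without protein; strong numbers were not always called active; many hits fall short of the cut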
PABP FP inh – PABP poly(A) RNA binding inhibitors, primary screen, biochemical, fluorescence polarization, uHTS. Polyadenylate-binding protein 1 (Homo sapiens), P11940. inhibition, % at 35 µM. 290,000 tested, 1% active;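 active means 50% or more with normal probe brightness, or confirmed in later tests; inconclusive means above 50% with abnormal brightness, or retests that disagree; inactive means below 50% or failed in later tests; about a fifth of its hits are not listed in these tables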;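 further: calls also rest on retests at 20 µM and on dose response follow-up; controls were probe without protein and protein plus probe with vehicle; some compounds called inactive have numbers as strong as hits; many hits fall short of the cut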
Target sequence (P11940 whole entry, looked up): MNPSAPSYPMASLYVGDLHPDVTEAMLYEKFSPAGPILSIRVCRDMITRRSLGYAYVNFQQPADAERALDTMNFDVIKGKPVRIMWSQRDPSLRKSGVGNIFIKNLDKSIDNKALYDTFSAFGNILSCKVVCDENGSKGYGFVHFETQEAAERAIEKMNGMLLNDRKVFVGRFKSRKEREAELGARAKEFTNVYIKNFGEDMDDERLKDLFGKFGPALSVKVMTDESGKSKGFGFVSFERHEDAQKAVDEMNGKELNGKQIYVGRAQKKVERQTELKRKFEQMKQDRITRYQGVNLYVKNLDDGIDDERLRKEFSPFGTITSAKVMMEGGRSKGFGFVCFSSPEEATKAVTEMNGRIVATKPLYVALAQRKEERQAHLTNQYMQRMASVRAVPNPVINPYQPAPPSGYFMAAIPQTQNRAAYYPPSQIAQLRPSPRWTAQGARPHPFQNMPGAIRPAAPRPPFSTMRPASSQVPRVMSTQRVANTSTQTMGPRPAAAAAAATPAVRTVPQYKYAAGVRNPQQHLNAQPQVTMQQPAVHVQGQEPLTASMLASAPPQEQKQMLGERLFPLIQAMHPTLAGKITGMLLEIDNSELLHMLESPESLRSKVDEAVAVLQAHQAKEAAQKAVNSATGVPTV
HIV Env fusion – inhibitors of HIV-1 Env-driven cell-cell fusion, primary screen, HeLa-JRFL effector, CEM21 target cells, luciferase | AID 651610, 2012 | 360,000 tested, 1.1% active | inhibition, % at 12.3 µM;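 active means mean replicate inhibition score of at least 50 and every replicate individually at or above 50; inconclusive means only one of the two criteria met; inactive means mean below 50 and not all replicates reaching 50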;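 further: 0% = plate neutral controls and 100% = maraviroc near 300 nM; one replicate is shown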
Rce1 inh – yeast Rce1p protease inhibitors, primary screen, biochemical, fluorescence, cell-free homogeneous; CAAX prenyl protease 2 (Saccharomyces cerevisiae (strain ATCC 204508 / S288c)), Q03530; yeast membranes, quenched prenylated peptide cleavage fluorescence; calls only; 290,000 tested, 0.27% active;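 active means fall in fluorescence gain of 50% or more versus controls, with final raw signal at or below 3038400; inconclusive means same 50% fall but final raw signal above 3038400; inactive means fall in fluorescence gain under 50%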;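 further: plate controls were neutral control wells for no effect and wells lacking membranes for full effect; tested at 10 µM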
UUG fidelity – modulators of yeast start codon fidelity, primary screen, whole organism, S. cerevisiae, single point, plate reader; activity score, % at 18.7 µM; 350,000 tested, 0.13% active; S. cerevisiae UUG-firefly luciferase reporter, luminescence/redox ratio; AID 602363, 2012;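 active means replicate mean at a twofold rise or more, about +100% in these data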;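 further: firefly luciferase made from a UUG start codon reports start codon fidelity; reporter light over untreated wells divided by growth signal over untreated wells; some hits fall short of that in this replicate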
MT1-MMP act inh – blockers of MT1-MMP proenzyme processing, primary screen, HT1080 RFP-PRO-GFP cells, GFP/RFP fluorescence; GFP/RFP ratio fluorescence, overnight; percent of plate control window, DMSO zero; AID 651647, 2012; Matrix metalloproteinase-14 (Homo sapiens), P50281; GFP/RFP ratio change, % at 20 µM; 360,000 tested, 0.061% active;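 active means GFP/RFP ratio change of at least 30% with cell ATP level not reduced by more than half and red fluorescence within 50% of control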; further: strong numbers were not always called active
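Material – HT1080 RFP-PRO-GFP cells · Control set – DMSO wells and RFP-L50D-GFP cells · Incubation – overnight cell settling, then overnight compound exposure, 37 °C, 5% CO2 · Compound dosing – single-point 20 µM compound, 1% DMSO · Read-out – GFP/RFP fluorescence ratio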
eIF4H inh retest – second read-out of eIF4H inh, no call of its own (marks repeat the call); inhibition, %; compound at 20 µM; confirmation average;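 mean of two retest wells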
PABP FP inh retest – further read-out of PABP FP inh, marked with its call; inhibition, %; compound at 20 µM; confirmation repeats;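 mean of two retest wells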
MT1-MMP act inh RFP – second read-out of MT1-MMP act inh, no call of its own (marks repeat the call); RFP signal change, %; measured here: RFP expression control read;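 0 = vehicle wells; hits needed this value within 50% of zero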
An asterisk follows results filed as active; i = inactive; u = inconclusive; x = not tested or not shown.

SMILES	CSC inhib	eIF4H inh	PABP FP inh	HIV Env fusion	Rce1 inh	UUG fidelity	MT1-MMP act inh	MT1-MMP act inh RFP	others
O=C(NCCc1ccccc1)c1cnc2ccccc2n1	-9	5	-9	-41	i	-12	-8	-6
Cc1c(NC(=O)c2cc3nc(-c4ccccc4)cc(C)n3n2)c(=O)n(-c2ccccc2)n1C	-5	-1	-6	x	i	-8	-1	1
COc1ccccc1CCNC(=O)c1ccc(Br)s1	0	-10	-8	-20	i	-10	2	-2
Cc1ccc(C)c(OCc2cc(C(=O)NC3CCN(Cc4ccccc4)CC3)no2)c1	12	-11	-10	11	i	x	-4	-19
COc1ccccc1NC(=O)NCCN1C(=O)C2C3C=CC(C3)C2C1=O (stereo unspecified)	-20	-14	-8	5	i	-10	1	0
CCOC(=O)c1[nH]c2ccccc2c1NC(=O)c1ccc(S(=O)(=O)N(C)C)cc1	-13	-8	-3	0	i	-16	1	4
O=C(NNc1ccc(Cl)cc1)C1CCC1	36	-4	5	4	i	-24	3	7
Brc1ccccc1OCCNCc1ccccc1	10	3	7	-8	i	x	3	3
O=C(N/N=C/c1cccc(F)c1)c1c(O)c2c([nH]c1=O)CCCC2	5	-6	-6	-26	i	x	7	6
CC(C)NC(=O)CCc1nc2cccnc2n1-c1ccccc1	-16	16	7	-25	i	-15	-3	1
Oc1c(Br)cc(Br)cc1CNc1cnc2ccccc2c1	58	2	12	9	i	-14	3	-2
O=C(NCc1ccco1)c1ccc2c(c1)OCCO2	-1	5	13	u	i	-9	1	-2
COc1ccc(-c2ccnc3cc(C(=O)O)nn23)cc1	0	7	10	2	i	x	2	5
O=C(CSc1nnc(Cc2csc(Nc3cccc(Cl)c3)n2)o1)N1CCc2ccccc21	17	-5	-4	x	i	-4	-1	-3
CCOC(=O)c1c(CN2CCN(C)CC2)oc2ccc(O)cc12	-16	4	54	-72	i	-18	1	0	eIF4H inh retest=-2;PABP FP inh retest=6
COc1cccc(CNc2ccc3[nH]c(=O)[nH]c3c2)c1OCc1ccc(F)cc1	-10	0	6	8	i	-9	-3	0
CCCCn1c(N)c(N(CCOC)C(=O)c2cc(-c3ccc(OC)cc3)nc3ccccc23)c(=O)[nH]c1=O	-11	x	x	x	i	x	-2	1
CC(/C=C/c1ccccc1)=N/NC(=O)c1cnccn1	-9	-3	18	-38	i	x	-2	-4
CCOC(=O)C1=C(O)C(=O)N(c2ccc(S(N)(=O)=O)cc2)C1c1ccc(Cl)cc1 (stereo unspecified)	0	4	6	x	i	-17	0	3
O=C(/C=C/c1ccco1)NCC(=O)N/N=C/c1ccccc1[N+](=O)[O-]	1	4	6	4	i	x	17	7
COc1cc(OC)c2ccc(=O)oc2c1C(CCN1CCOCC1)c1ccc2c(c1)OCO2 (stereo unspecified)	x	x	x	-14	x	-12	3	5
CN(C)c1oc(-c2ccc(OCc3ccccc3)cc2)nc1C#N	x	0	2	x	i	-7	1	-7
O=C(NC1CCCCC1)N(CCN1CCOCC1)Cc1cc2cc3c(cc2[nH]c1=O)OCCO3	x	-8	1	-21	i	1	12	2
CC[n+]1cccc(-c2nc3ccccc3s2)c1	2	6	6	5	x	-15	3	6
COc1ccc(NC(=O)CSc2ccccc2)cn1	-10	38	14	-12	i	-3	1	6
S=c1nc(C2CCCCC2)n(-c2ccccc2)[nH]1	12	29	-8	3	i	x	1	3
O=C(NCCCN1CCOCC1)c1ccccc1N1C(=O)[C@@H]2Cc3c([nH]c4ccccc34)C(c3ccc(F)cc3)N2C1=O (stereo partly specified)	-7	-1	-4	x	i	17	-3	-1
CC(OC1=CC(=O)CCC1)C(=O)c1ccccc1 (stereo unspecified)	-7	-3	2	-32	i	-30	0	-3
COC(=O)C1=C(C)Nc2nnnn2C1c1ccccc1Cl (stereo unspecified)	-5	-5	1	x	i	20	-1	0
Cc1cc(Br)ccc1NC(=O)CNC(=O)CN(C)C1CCS(=O)(=O)C1 (stereo unspecified)	x	x	x	11	x	-8	-2	1
COc1ccc(S(=O)(=O)N2CCOCC2)cc1C(=O)N1CCCCCC1	-5	7	-8	-5	i	-20	0	0
CC(C)(C)c1ccc(C(=O)NCCC(=O)Nc2ccc(S(=O)(=O)Nc3nccs3)cc2)cc1	x	x	x	11	x	-9	3	-1
N#Cc1cc2c(nc1SCC(=O)N1CCOCC1)CCCCC2	x	-8	-3	x	i	x	x	x
COc1ccccc1NC(=O)Cn1cnc2c(cnn2-c2ccccc2)c1=O	-5	1	2	11	i	-14	2	-2
O=C(CCC1CCCCC1)NCCN1C2=NC[C@H](Cc3ccc(O)cc3)N2C[C@H]1Cc1ccc(O)cc1	-7	2	-5	-207	i	-4	2	-6
COc1ccc(Nc2nnc(C)c(=O)[nH]2)c(OC)c1	-20	-10	-4	1	i	-1	-2	0
Cc1cccc(NC(=O)CN2C(=O)CSC2=O)c1	-4	-4	-3	-31	i	x	0	3
CCc1sc(C(=O)N(CCOC)c2c(N)n(Cc3ccccc3)c(=O)[nH]c2=O)cc1C	x	x	x	28	x	-6	-3	1
O=C(COc1ccccc1)NCC(c1ccco1)N1CCN(c2ccc(F)cc2)CC1 (stereo unspecified)	6	x	x	x	i	-8	7	-1
CC(C)Nc1nc(C#N)nc(NC(C)C)n1	-22	2	-4	-15	i	-14	3	-1
COC(=O)c1cc(Br)ccc1NC(=O)CSCc1c(C)noc1C	-11	x	x	x	x	-12	-5	-7
Cc1cc(C)cc(NC(=S)N(CCN2CCCCC2)Cc2ccco2)c1	-3	4	2	13	i	10	3	6
N#CC12CCCCC1CC1CCCCC1(C#N)N2CCO (stereo unspecified)	-11	6	-5	x	i	-1	0	5
O=C(CC1C(=O)N(c2ccccc2)C(=O)N1C1CCCCC1)Nc1ccccc1 (stereo unspecified)	-13	-2	13	-75	i	-4	1	-2
CCOc1ccc2oc(C(=O)OCC(=O)NCc3ccc(OC)cc3)c(C)c2c1	14	x	x	x	x	-15	-2	2
CCC1CCCCN1CCCNC(=O)CN1C(=O)COc2ccc(S(=O)(=O)N3CCC(C)CC3)cc21 (stereo unspecified)	-3	-11	-7	7	i	-14	-3	0
Cc1cc(C(=O)CCl)c(C)n1-c1c(C)n(C)n(-c2ccccc2)c1=O	18	-7	19	25	i	x	2	1
COc1ccc(C(=O)C[n+]2ccc(N(C)C)cc2)cc1	-6	-15	-12	5	i	x	2	-3
COc1ccc(NC(=S)NCc2ccc3c(c2)cc(C)n3C)cc1	-1	49	1	-16	i	-6	13	11
Cc1ccc(C(=O)OCC2OC3OC(C)(C)OC3C2O)cc1 (stereo unspecified)	2	-6	-10	-3	i	8	6	-2
COc1ccc(-c2nc3ccccc3nc2-c2ccccc2)cc1	10	7	-3	-5	x	-8	-3	-3
COc1ccc2c(CCNC(=O)/C=C/c3ccc(OC)c(OC)c3)c[nH]c2c1	-2	2	0	-1	i	11	-1	-6
c1ccc(Nc2nc(-c3ccncc3)nc3ccccc23)cc1	2	6	3	x	i	-22	3	-1
CCCn1nnc(NC(=O)c2ccc(-c3cccc(Cl)c3)o2)n1	9	0	-3	-141	i	12	6	6
Cc1cc(NC(=O)Cc2ccccc2)ccc1NC(=O)c1cccs1	3	-10	-13	-4	i	x	1	0
O=C(NCC1CCCO1)c1ccc(S(=O)(=O)N2CCC(c3nc4ccc(Cl)cc4[nH]3)CC2)cc1 (stereo unspecified)	12	0	16	32	i	1	6	-6
COc1ccc(Cc2nnc(SCC(=O)Nc3ccc(C)c(C)c3)o2)cc1OC	2	-15	-7	19	i	x	4	3
CC1CC2=C(C(=O)O1)C(c1ccccc1)Nc1ccccc1N2 (stereo unspecified)	x	-1	24	x	i	x	-2	3
Cc1ccc(NC2CCCN(C(=O)c3ccccc3-c3ncc[nH]3)C2)cc1C (stereo unspecified)	1	4	0	-7	i	-22	-2	0
CN(C)c1ccc(/C=C(\NC(=O)c2ccccc2)C(=O)NCCCn2ccnc2)cc1	-15	-11	0	6	x	-22	-1	0

(more compounds)
SMILES	CSC inhib	eIF4H inh	PABP FP inh	HIV Env fusion	Rce1 inh	UUG fidelity	MT1-MMP act inh	MT1-MMP act inh RFP	others
Clc1ccc(Oc2nc(N3CCOCC3)nc(N3CCOCC3)n2)c(C2CCCCC2)c1	-1	x	x	x	i	-12	0	0
CCCCn1c(N)c(N(CC(C)C)C(=O)Cc2ccc(S(=O)(=O)N3CCOCC3)s2)c(=O)[nH]c1=O	x	x	x	-25	x	-17	-100	4
Cc1ccc(CNC(=O)c2cc3c(=O)n(C)c4ccccc4c3n2C)cc1	-24	-18	-7	-45	i	-8	3	4
COc1ccccc1/C=N/NC(=O)CO	-7	1	1	u	i	x	1	3
CCn1c2ccc(Cl)cc2c2nc3ccccc3nc21	x	1	14	11	i	x	x	x
Cc1ccc(CN2CCN(/N=C/c3cccn3C)CC2)c(C)c1	-4	1	6	10	i	x	6	-1
Cc1ccc(S(=O)(=O)NC2(C(F)(F)F)NC(=O)N(CCc3ccccc3)C2=O)cc1 (stereo unspecified)	-8	5	-4	19	i	16	0	4
CC(C)C(NC(=O)c1ccccc1F)C(=O)OCC(=O)c1ccc(F)cc1 (stereo unspecified)	-12	9	-4	-1	i	x	0	-3
CCCn1c(N)c(C(c2ccc(C(=O)OC)cc2)N2CCN(c3ccccc3)CC2)c(=O)[nH]c1=O (stereo unspecified)	-17	-2	3	-51	i	2	3	2
CCCCn1c(N)c(N(CC(C)C)C(=O)c2oc3c(Cl)cccc3c2C)c(=O)[nH]c1=O	x	x	x	1	i	x	-5	-4
O=C(Nc1ccc(NC(=O)c2cccs2)c(Cl)c1)c1cccs1	x	-7	-2	-37	i	-22	2	1
COC(=O)c1ccc(/C=N\n2c(C)nnc2C)cc1	-1	1	-13	x	i	-16	7	9
CCC(=O)N(C)CCc1cc2c(c(OC)c1/C=N/NC(=O)c1ccc(Br)cc1)OCO2	28	4	-5	8	i	-6	4	3
COc1ccccc1P(=O)(c1ccccc1)c1ccccc1	-12	0	-7	-26	i	-3	-3	0
CC1(C(=O)Nc2cccc3ccccc23)CC1(Br)Br (stereo unspecified)	4	-1	-1	9	i	x	7	9
CCCN1CNC(=S)N(c2ccccc2OC)C1	22	-5	-10	-39	i	-13	4	2
Cc1sc2ncn(CC(=O)NCc3ccco3)c(=O)c2c1-c1ccc(F)cc1	-4	11	11	-10	i	x	0	2
Cc1ccc(-c2c(C(=O)N(C)Cc3ccccc3)oc(=O)c3ccccc23)cc1	-11	13	13	-18	i	x	-2	-8
O=C1c2cccc3cccc(c23)C(=O)N1CCN1CCN(C(=S)Nc2ccc(F)cc2)CC1	26	-2	11	x	i	x	x	x
COc1cc(/C=C2\C(=O)N(c3ccc(S(N)(=O)=O)cc3)N=C2C)ccc1OC(=O)c1ccco1	-12	27	8	-2	i	x	6	3

Not all compounds are listed; the hit share may differ from the screen's.
